# Screening results deposited in PubChem by Broad Institute.
# PD-1 reverse act: reversal of PD-1 mediated T-cell inhibition; primary human CD4 T cells, PD-L1 beads, CellTiter-Glo 96 h; activation, % (no concentration beside the values); 29,000 tested, under 10 active; AID 2316;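 active means replicate mean of 50% or more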;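 further: 0% = median vehicle wells and 100% = positive control; 100 nL library stock added to about 50 µL; numbers are from one replicate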
# MITF inh: inhibitors of MITF; 0.28% of 37,000 active; inhibition, % (test concentration not listed); TRPM1 promoter luciferase, luminescence, 24 h;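 active means most replicates at 85% or more, or half of them and the mean; inconclusive means half reach 85% but not the mean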;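 further: human melanocyte line stably carrying TRPM1 promoter luciferase reporter; 0% = vehicle wells and 100% = a positive control; the first replicate is given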
# Hedgehog inh: Sonic Hedgehog pathway inhibition; Shh-LIGHT2 Gli-luciferase reporter, 30 h; inhibition, % (concentration not given with the values); 2.1% of 22,000 active;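 active means replicate mean of 65% or more; inconclusive means mean lower but half the replicates past it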;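 further: pathway switched on by Shh-conditioned medium diluted 1 in 25 in low serum; 100 nL library stock added to about 40 µL; 0% = median of neutral wells and 100% = positive control level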
# YB-1 expr inh: YB-1 expression inhibition; 0.37% of 30,000 active; delta delta Cp (YB-1 minus CDIP) (test concentration not listed); U2OS, qRT-PCR YB-1 vs CDIP delta delta Cp, 16 h; stronger effect = higher value; zero = DMSO, each unit about twofold; AID 434959;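 active means delta delta Cp rounded down to an integer at or above 3, about 3 SD of DMSO wells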;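 further: higher means less YB-1 transcript or more CDIP transcript relative to DMSO; stock transfer was 100 nL into about 100 µL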
# Starred values were filed as active, the others as inactive; ? = inconclusive; . = no result given. A portion of the library (hit frequency here may not be typical).
# Values run as follows: PD-1 reverse act	MITF inh	Hedgehog inh	YB-1 expr inh
C[C@H]1CN([C@@H](C)CO)C(=O)Cc2cc(NC(=O)CCC(F)(F)F)ccc2O[C@@H]1CN(C)Cc1ccccc1
    0.1	-3	34	-0.11
Cc1noc(C)c1NC(=O)N(C)C[C@H]1Oc2ccc(NC(=O)c3ccncc3)cc2C(=O)N([C@H](C)CO)C[C@@H]1C
    .	-3	28	0.18
CCOC(=O)c1sc(N2CCCCC2)c2c1CC(C)(C)CC2=O
    -2.5	-1	29	-0.52
Cc1noc(C)c1S(=O)(=O)Nc1ccc2c(c1)CC(=O)N([C@H](C)CO)C[C@@H](C)[C@H](CN(C)C(=O)Nc1ccccc1)O2
    .	-24	-26	0.18
C[C@H]1CN([C@@H](C)CO)C(=O)Cc2cc(N(C)C)ccc2O[C@@H]1CN(C)C(=O)Nc1ccc2c(c1)OCO2
    .	-12	2	-0.36
O=C(c1ccccc1)c1cc(Br)ccc1NC(=O)C1CC=CCC1C(=O)O (configuration not stated)
    2.7	-4	.	.
C[C@@H]1CN([C@@H](C)CO)C(=O)c2cccc(NC(=O)c3nc4ccccc4s3)c2O[C@@H]1CN(C)Cc1ccc(C(=O)Nc2ccccc2N)cc1
    -5.6	18	.	-0.57
CC(C)NC(=O)Nc1ccc2c(c1)C(=O)N([C@@H](C)CO)C[C@H](C)[C@H](CN(C)C(=O)Nc1ccc3c(c1)OCO3)O2
    .	9	-9	0.22
Cc1cccc(-n2c(SCC(=O)c3ccccc3)nnc2-c2cccs2)c1C
    -2.6	25	.	.
C[C@@H]1CN([C@@H](C)CO)C(=O)c2cccc(NC(=O)c3cnccn3)c2O[C@@H]1CN(C)Cc1ccccc1
    1.4	-22	11	0.22
C/S(=N/C(=O)Nc1ccc(Cl)cc1)c1ccc(OC(=O)c2ccc(Cl)cc2)cc1 (configuration not stated)
    -2.9	15	-25	-0.27
O=C(O)COc1ccc2occ(C(=O)c3ccccc3)c2c1
    1.6	-5	.	.
C/C=C/C1=CC(=O)[C@H](O)[C@H]1O
    -4.4	-1	-12	0.36
C[C@H]1CN([C@@H](C)CO)C(=O)c2cccc(NC(=O)C3CCCCC3)c2O[C@@H]1CN(C)C(=O)Nc1ccc2c(c1)OCO2
    .	-3	45	-0.33
C[C@@H]1CN([C@H](C)CO)C(=O)Cc2cc(NC(=O)Nc3ccc(C(F)(F)F)cc3)ccc2O[C@@H]1CN(C)S(=O)(=O)c1cn(C)cn1
    0.3	-2	-20	0.2
Cc1noc(C)c1NC(=O)Nc1cccc2c1O[C@@H](CN(C)CC1CCCCC1)[C@@H](C)CN([C@@H](C)CO)C2=O
    -0.7	-2	6	0.33
CCn1c(SCC(=O)Nc2ccccc2C(F)(F)F)nnc1-c1ccc(N)cc1
    -0.6	-17	.	.
CCOC(=O)c1ccc(NC(=O)Cn2cc([N+](=O)[O-])cn2)cc1
    0.8	-11	.	.
C[C@@H]1CN([C@H](C)CO)C(=O)c2cccc(NC(=O)Nc3ccc(C(F)(F)F)cc3)c2O[C@H]1CN(C)S(=O)(=O)c1ccc(F)cc1
    .	4	-7	-0.66
Cc1ccc(S(=O)(=O)N(C)C[C@@H]2Oc3ccc(NS(=O)(=O)c4cccs4)cc3C(=O)N([C@H](C)CO)C[C@H]2C)cc1
    .	-2	.	0.42

# Sorted by length of the SMILES (falling): part of the list above
# Values run as follows: PD-1 reverse act	MITF inh	Hedgehog inh	YB-1 expr inh
CC(C)NC(=O)Nc1ccc2c(c1)C(=O)N([C@@H](C)CO)C[C@H](C)[C@H](CN(C)C(=O)Nc1ccc3c(c1)OCO3)O2
    .	9	-9	0.22
CCn1c(SCC(=O)Nc2ccccc2C(F)(F)F)nnc1-c1ccc(N)cc1
    -0.6	-17	.	.
Cc1cccc(-n2c(SCC(=O)c3ccccc3)nnc2-c2cccs2)c1C
    -2.6	25	.	.

# Other entries.
# Values run as follows: PD-1 reverse act	MITF inh	Hedgehog inh	YB-1 expr inh
C[C@H](CO)N1C[C@H](C)[C@H](CN(C)C(=O)Nc2ccc(F)cc2)Oc2c(NC(=O)c3ccc(-c4nccs4)cc3)cccc2C1=O
    -0.3	0	12	-0.47
COc1cccc(N(CC(=O)Nc2ccc(C(F)(F)F)cc2)S(C)(=O)=O)c1
    -1.6	10	.	.
Cc1ccc(S(=O)(=O)Nc2ccc3c(c2)C(=O)N([C@@H](C)CO)C[C@@H](C)[C@H](CN(C)Cc2ccc(Cl)c(Cl)c2)O3)cc1
    0.7	6	.	0.38
C[C@H](CO)N1C[C@H](C)[C@@H](CN(C)S(=O)(=O)c2cn(C)cn2)Oc2ccc(NS(=O)(=O)c3ccccc3)cc2C1=O
    0.5	2	-18	0.31
C[C@H](CO)N1C[C@H](C)[C@@H](CN(C)Cc2ccc(C(F)(F)F)cc2)Oc2c(NC(=O)c3ccc(-c4nccs4)cc3)cccc2C1=O
    -6.0	67	?	-17
C/C=C/c1ccc(OCCSc2nc(C)cc(=O)[nH]2)c(OC)c1
    1.4	-44	.	.
Cc1noc(C)c1NC(=O)Nc1ccc2c(c1)CC(=O)N([C@H](C)CO)C[C@@H](C)[C@@H](CN(C)C(=O)Nc1ccc(F)cc1)O2
    .	4	-19	-0.23
C[C@@H]1CN([C@@H](C)CO)C(=O)c2cc(NS(=O)(=O)c3ccccc3)ccc2O[C@@H]1CN(C)C(=O)Nc1ccccc1
    -1.6	3	20	-0.29
C[C@H]1CN([C@@H](C)CO)C(=O)c2cccc(NC(=O)C3CCCCC3)c2O[C@H]1CN(C)C(=O)Nc1ccccc1
    1.6	11	38	-0.21
C[C@H](CO)N1C[C@H](C)[C@@H](CN(C)Cc2ccc(-c3ccccc3)cc2)Oc2ccc(NS(=O)(=O)c3ccc(F)cc3)cc2C1=O
    -0.8	18	8	-0.34
O=C(O)CSc1nnc(-c2ccc(Cl)cc2Cl)n1-c1ccccc1
    -0.7	0	.	.
O=S(=O)(Nc1cccc(C(F)(F)F)c1)c1ccccc1
    -0.2	13	12	-0.24
Cc1ccc(S(=O)(=O)N(C)C[C@@H]2Oc3c(NS(C)(=O)=O)cccc3C(=O)N([C@H](C)CO)C[C@@H]2C)cc1
    1.3	-3	-5	0.053
C[C@H](CO)N1C[C@H](C)[C@H](CN(C)S(=O)(=O)c2ccc(F)cc2)Oc2ccc(NS(=O)(=O)c3ccc(Cl)cc3)cc2C1=O
    .	13	.	-0.26
C[C@H]1CN([C@@H](C)CO)C(=O)c2cccc(NS(=O)(=O)c3cn(C)cn3)c2O[C@H]1CN(C)Cc1ccc(C(F)(F)F)cc1
    1.3	-4	-19	0.22
C[C@H]1CN([C@@H](C)CO)C(=O)c2cccc(NC(=O)Nc3cccc4ccccc34)c2O[C@H]1CN(C)C
    -0.3	1	21	0.52
C[C@H](CO)N1C[C@H](C)[C@H](CN(C)Cc2ccncc2)Oc2ccc(NC(=O)CCCN(C)C)cc2C1=O
    -1.8	-1	-24	0.49
C[C@H](CO)N1C[C@H](C)[C@H](CN(C)Cc2ccc(C(=O)Nc3ccccc3N)cc2)Oc2ccc(NC(=O)Nc3ccc4c(c3)OCO4)cc2CC1=O
    -4.8	12	.	-0.19
COc1ccc(S(=O)(=O)Nc2cccc3c2O[C@H](CN(C)Cc2ccc(C(=O)Nc4ccccc4N)cc2)[C@@H](C)CN([C@@H](C)CO)C3=O)cc1
    -2.0	41	.	-0.17
CCOC(=O)c1c(NC(=O)CSc2nc3ccccc3o2)sc(C)c1C
    -0.3	0	.	.
C[C@@H]1CN([C@H](C)CO)C(=O)Cc2cc(NS(=O)(=O)c3ccc(Cl)cc3)ccc2O[C@H]1CN(C)C
    .	-7	1	0.17
COc1ccc(CN(C)C[C@H]2Oc3c(NS(=O)(=O)c4ccc(C)cc4)cccc3C(=O)N([C@H](C)CO)C[C@@H]2C)cc1
    0.5	-4	-2	0.43
Cc1noc(C)c1NC(=O)Nc1ccc2c(c1)C(=O)N([C@@H](C)CO)C[C@@H](C)[C@@H](CN(C)Cc1ccc(C(=O)O)cc1)O2
    1.0	-3	-20	-0.095
Cc1noc(C)c1S(=O)(=O)Nc1ccc2c(c1)C(=O)N([C@H](C)CO)C[C@H](C)[C@@H](CN(C)S(=O)(=O)c1ccc(Cl)cc1)OCCCC[C@@H](C)O2
    -5.1	38	29	0.28
O=C(NC1CCN(C(=O)c2c(Cl)cccc2Cl)CC1)C1CCCCC1
    1.0	-4	-70	0.21
C[C@@H]1CN([C@@H](C)CO)C(=O)c2cccc(NC(=O)c3nc4ccccc4s3)c2O[C@H]1CN(C)Cc1ccncc1
    .	6	-16	-0.099
CS(=O)(=O)N(CC(=O)Nc1cccc(C(F)(F)F)c1)Cc1ccccc1
    -1.8	-24	.	.
C[C@H]1CN([C@@H](C)CO)C(=O)Cc2cc(NS(=O)(=O)c3ccc(Cl)cc3)ccc2O[C@H]1CN(C)S(C)(=O)=O
    2.2	1	.	0.14
COc1ccc(S(=O)(=O)N(C)CC(=O)O)cc1
    1.5	-19	.	.
Cc1ccc(S(=O)(=O)N(C)C[C@@H]2Oc3c(NS(=O)(=O)c4ccccc4)cccc3C(=O)N([C@H](C)CO)C[C@H]2C)cc1
    1.8	1	21	-0.11
C[C@@H]1CN([C@H](C)CO)C(=O)c2cc(NC(=O)CCC(F)(F)F)ccc2O[C@H]1CN(C)S(C)(=O)=O
    0.2	0	-23	-0.51
O=C(CC1NCCNC1=O)Nc1cccc([N+](=O)[O-])c1 (configuration not stated)
    0.3	-8	.	.
C[C@@H]1CN([C@@H](C)CO)C(=O)Cc2cc(NC(=O)c3ccncc3)ccc2O[C@@H]1CN(C)Cc1ccc2c(c1)OCO2
    .	-13	16	-0.1
COc1ccc(N(CC(=O)Nc2ccc(C(F)(F)F)cc2)S(C)(=O)=O)cc1Cl
    -2.0	31	.	.
C[C@H](CO)N1C[C@H](C)[C@@H](CN(C)Cc2ccc(Cl)c(Cl)c2)Oc2ccc(NC(=O)C3CCCCC3)cc2C1=O
    -1.7	5	-1	-0.088
CC(C)NC(=O)Nc1ccc2c(c1)CC(=O)N([C@@H](C)CO)C[C@H](C)[C@@H](CN(C)Cc1ccc(-c3ccccc3)cc1)O2
    -1.7	6	-7	-0.12
Cc1ccc(-c2nn(C)c(=O)c3ccccc23)cc1CNC(=O)CN1CCOCC1
    -0.7	-14	.	.
O=S(=O)(CCc1nc2ccccc2o1)c1ccc(Cl)cc1
    1.3	7	.	.
Cc1noc(C)c1S(=O)(=O)Nc1ccc2c(c1)C(=O)N([C@H](C)CO)C[C@H](C)[C@H](CN(C)C(=O)Nc1ccc(F)cc1)O2
    -0.6	4	4	-0.27
C[C@H](CO)N1C[C@H](C)[C@H](CN(C)Cc2ccc(C(=O)Nc3ccccc3N)cc2)Oc2ccc(NC(=O)Nc3cccc4ccccc34)cc2C1=O
    -0.5	-1	.	-0.14
C[C@@H]1CN([C@@H](C)CO)C(=O)Cc2cc(NS(=O)(=O)c3ccc(Cl)cc3)ccc2O[C@@H]1CN(C)C(=O)NC1CCCCC1
    -0.6	-11	-35	0.14
Cc1nnc(SCc2nc(-c3ccc(Br)cc3)no2)n1-c1ccccc1
    -2.8	65	.	.
Cc1noc(C)c1S(=O)(=O)Nc1ccc2c(c1)C(=O)N([C@H](C)CO)C[C@H](C)[C@H](CN(C)Cc1ccc3c(c1)OCO3)OCCCC[C@@H](C)O2
    .	-5	?	1.8
C[C@@H]1CN([C@@H](C)CO)C(=O)Cc2cc(NS(=O)(=O)c3cn(C)cn3)ccc2O[C@@H]1CN(C)S(=O)(=O)c1ccc(Cl)cc1
    -1.5	-5	-14	0.13
Cc1noc(C)c1NC(=O)Nc1ccc2c(c1)C(=O)N([C@H](C)CO)C[C@H](C)[C@@H](CN(C)S(=O)(=O)c1ccc(F)cc1)O2
    .	-9	-11	-0.26
C[C@H](CO)N1C[C@H](C)[C@@H](CN(C)Cc2ccc(-c3ccccc3)cc2)Oc2c(cccc2N(C)C)C1=O
    -6.9	1	-1	0.25
COc1ccc(CN(C)C[C@H]2Oc3ccc(NC(=O)C4CC4)cc3C(=O)N([C@H](C)CO)C[C@@H]2C)cc1
    0.9	6	-11	0.17
Cc1ccc(S(=O)(=O)Nc2ccc3c(c2)CC(=O)N([C@@H](C)CO)C[C@@H](C)[C@@H](CN(C)C(=O)Nc2ccc(C(F)(F)F)cc2)O3)cc1
    .	-18	.	-0.49
C[C@H](CO)N1C[C@H](C)[C@H](CN(C)Cc2ccc(Oc3ccccc3)cc2)Oc2ccc(NC(=O)C3CC3)cc2C1=O
    .	18	.	-0.27
Cc1noc(C)c1NC(=O)N(C)C[C@@H]1Oc2ccc(NS(=O)(=O)c3cn(C)cn3)cc2CC(=O)N([C@H](C)CO)C[C@@H]1C
    -0.1	-6	-17	0.014

# Whole records, quoted from the list. Order of screens: PD-1 reverse act | MITF inh | Hedgehog inh | YB-1 expr inh
# COc1ccc(N(CC(=O)Nc2ccc(C(F)(F)F)cc2)S(C)(=O)=O)cc1Cl as listed: -2.0 | 31 | . | .
# C[C@@H]1CN([C@@H](C)CO)C(=O)c2cccc(NC(=O)c3cnccn3)c2O[C@@H]1CN(C)Cc1ccccc1 as listed: 1.4 | -22 | 11 | 0.22
# O=C(NC1CCN(C(=O)c2c(Cl)cccc2Cl)CC1)C1CCCCC1 as listed: 1.0 | -4 | -70 | 0.21
